RanGTP-Imp inh: inhibitors of RanGTP-importin-beta interaction, primary screen, biochemical, FRET, CFP-Ran, YFP-importin-beta, homogeneous; inhibition, % (concentration not given with the values); cell-free CFP-Ran/YFP-importin-beta FRET ratio; hit rate 1.1% among 300,000;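 active = most replicates above 15%; inconclusive = exactly half above 15%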;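 also: 0% = DMSO wells and 100% = Ran loaded with GDP instead of GTP; wells of about 40 µL received 100 nL stock; the first replicate is given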
Calb FLC: C. albicans growth modulation with fluconazole; C. albicans CaCi-2 (fluconazole-resistant clinical isolate) + fluconazole, Alamar Blue growth, 48 h; growth inhibition, % (no concentration beside the values); hit rate 0.57% among 300,000; AID 1979;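 active = most replicates above 75%; inconclusive = exactly half above 75%; inactive = most below 75%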;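 also: all wells also contain fluconazole at 8 µg/ml as a sub-toxic cotreatment; 0% = median of DMSO wells and 100% = median of geldanamycin control wells; wells of about 8 µL received 7.5 nL stock; the first replicate is given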
Beta cell apopt: beta cell apoptosis inhibition; INS-1E cytokine-induced death, ATP luminescence, 48 h; percent of positive-control rescue, neutral wells zero; protection from apoptosis, % (no concentration beside the values); hit rate 0.8% among 300,000; AID 435005;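 active = all replicates at 75% or more, or half of them and the mean; inconclusive = half reach 75% but not the mean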;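 also: 0% = cytokine-treated negative control wells and 100% = positive control rescue; higher means more ATP so stronger rescue from cytokine killing; wells of about 40 µL received 100 nL stock; the first replicate is given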
Beta2AR agonist: activates human beta-2 adrenergic receptor causing internalization; Am2.2-beta2AR cells, FAP receptor internalization, flow cytometry; reference of the scale not given here; response, % (test concentration not listed); hit rate 0.43% among 340,000; P07550;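 active = response above a set limit, near 3 SD of response in nonfluorescent compounds, cut at about 42% in these data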;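 also: stock transfer was 100 nL into about 11 µL; a reference agonist was the positive control; negative values mostly stem from fluorescent compounds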
T cruzi repl: blocks replication of Trypanosoma cruzi. T. cruzi beta-gal in NIH3T3, luminescence, 90 h. hit rate 1.4% among 300,000. inhibition, % (concentration not given with the values);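 active = mean inhibition across valid replicates above about 55%, limit read from the data; inconclusive = mean below that limit but half or more replicates reach it; inactive = mean below it, under half of replicates reach it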;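 also: signal also drops with host cell toxicity which is not excluded here; 0% = plate median of DMSO wells and 100% = zero luminescence signal; higher percent means less beta-gal luminescence so fewer parasites; stock transfer was 50 nL into about 50 µL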
LANA-H2A inh: blocks KSHV LANA binding to histone H2A/H2B. hit rate 0.6% among 320,000. Q9QR71. inhibition, % (concentration not given with the values). cell-free LANA-H2A/H2B peptide, fluorescence polarization; in the data active = inhibition mostly above about 10%, no sharp cut-off; inactive = mostly below about 6.7%;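 also: stock transfer was 7.5 nL into about 10 µL; 0% = median of vehicle wells and 100% = median of positive control wells; one replicate is shown; the record names a cut of 25% in any replicate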
Target sequence (Q9QR71 whole entry, looked up): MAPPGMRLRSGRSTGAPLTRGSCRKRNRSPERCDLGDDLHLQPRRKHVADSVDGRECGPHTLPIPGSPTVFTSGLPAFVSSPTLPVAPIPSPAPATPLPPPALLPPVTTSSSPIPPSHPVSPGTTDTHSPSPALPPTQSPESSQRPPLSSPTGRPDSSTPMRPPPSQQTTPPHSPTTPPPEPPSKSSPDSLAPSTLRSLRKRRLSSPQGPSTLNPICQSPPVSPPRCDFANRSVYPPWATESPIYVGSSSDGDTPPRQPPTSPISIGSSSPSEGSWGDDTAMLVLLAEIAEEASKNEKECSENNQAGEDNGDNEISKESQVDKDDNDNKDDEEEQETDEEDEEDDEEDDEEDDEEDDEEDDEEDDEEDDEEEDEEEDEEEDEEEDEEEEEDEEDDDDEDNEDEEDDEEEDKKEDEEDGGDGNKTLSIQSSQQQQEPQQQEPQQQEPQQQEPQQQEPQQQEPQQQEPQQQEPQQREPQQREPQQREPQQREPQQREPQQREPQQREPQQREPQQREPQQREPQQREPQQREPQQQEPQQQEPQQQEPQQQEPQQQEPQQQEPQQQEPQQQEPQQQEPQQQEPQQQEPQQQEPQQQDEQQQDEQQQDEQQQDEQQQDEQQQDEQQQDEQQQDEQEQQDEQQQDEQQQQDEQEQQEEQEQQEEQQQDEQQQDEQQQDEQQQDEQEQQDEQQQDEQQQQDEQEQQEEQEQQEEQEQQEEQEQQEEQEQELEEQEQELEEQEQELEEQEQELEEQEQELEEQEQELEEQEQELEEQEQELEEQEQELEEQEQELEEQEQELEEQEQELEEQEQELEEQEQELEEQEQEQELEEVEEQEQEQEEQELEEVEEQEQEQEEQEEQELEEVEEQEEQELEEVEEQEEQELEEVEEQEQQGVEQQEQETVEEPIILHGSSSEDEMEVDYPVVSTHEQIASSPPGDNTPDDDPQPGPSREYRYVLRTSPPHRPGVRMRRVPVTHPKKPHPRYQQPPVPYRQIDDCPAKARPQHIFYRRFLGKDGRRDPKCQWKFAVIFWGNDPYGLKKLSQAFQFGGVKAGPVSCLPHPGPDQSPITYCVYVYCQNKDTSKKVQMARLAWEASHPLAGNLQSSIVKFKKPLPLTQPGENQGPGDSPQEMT
UCH37 inh: blocks the human deubiquitinase UCH37 | Q9Y5K5 | purified proteasome/UCH37, Ub-AMC cleavage fluorescence | hit rate 0.33% among 330,000 | inhibition, % (no concentration beside the values);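 active = mean of two replicates above 20%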;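 also: 0% = compound-free wells with enzyme and 100% = wells lacking proteasome; stock transfer was 100 nL into about 20 µL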
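Reagent: Ub-AMC substrate; assay system: Proteasome-associated human UCH37 deubiquitinase; controls: no-proteasome and no-compound wells; read-out: % inhibition of Ub-AMC cleavage fluorescence; timing: 30 min preincubation with enzyme, 25 min cleavage at room temperature; signal: AMC fluorescence from Ub-AMC cleavage, excitation 355 nm, emission 460 nm; buffer or medium: Tris-HCl pH 7.4 plus ovalbumin, ATP-MgCl2, DTT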
A1 inh: inhibitors of the anti-apoptotic protein A1, read as caspase activation. MEF A1-2A-BIM cells, Caspase-Glo 3/7 luminescence, 3 h; percent of clofoctol response, vehicle zero. caspase activation, % (concentration not given with the values). hit rate 0.066% among 330,000. AID 2462;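 active = over half of replicate activation scores above 10%, or exactly half above 10 with the replicate mean above 10; inconclusive = replicate mean below 10 yet half the replicates above 10; inactive = over half of replicates below 10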;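 also: wells of about 30 µL received 50 nL stock; many hits fall short of the cut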
* marks the source's active call; other numbers are inactive results.

Start of the listing, in advance:
`CCn1cc(C(=O)N[C@H](C(=O)NCCCO)C(C)C)c(=O)c2cc3c(cc21)OCO3` gave RanGTP-Imp inh -0.2, Calb FLC 4, Beta cell apopt 2, Beta2AR agonist -7, T cruzi repl -7, LANA-H2A inh 1.8, UCH37 inh -8.1 and A1 inh 0.5.
`Cc1ccc(NC(=O)CN2C(=O)/C(=C\c3cccs3)SC2=S)cc1` gave RanGTP-Imp inh -0.3, Calb FLC 7, Beta cell apopt -5, Beta2AR agonist 5, T cruzi repl -11, LANA-H2A inh -2.7, UCH37 inh 9.2 and A1 inh 1.1.

The whole of this part, from the first entry:
`CCn1cc(C(=O)N[C@H](C(=O)NCCCO)C(C)C)c(=O)c2cc3c(cc21)OCO3` gave RanGTP-Imp inh -0.2, Calb FLC 4, Beta cell apopt 2, Beta2AR agonist -7, T cruzi repl -7, LANA-H2A inh 1.8, UCH37 inh -8.1 and A1 inh 0.5.
`Cc1ccc(NC(=O)CN2C(=O)/C(=C\c3cccs3)SC2=S)cc1` gave RanGTP-Imp inh -0.3, Calb FLC 7, Beta cell apopt -5, Beta2AR agonist 5, T cruzi repl -11, LANA-H2A inh -2.7, UCH37 inh 9.2 and A1 inh 1.1.
Screening C/C(=N\NC(=O)CNc1cccc(C)c1)c1ccc(Br)s1 returned RanGTP-Imp inh 0.4, Calb FLC inconclusive, Beta cell apopt 9, Beta2AR agonist -6, T cruzi repl 7, LANA-H2A inh -1.2 and A1 inh 0.3.
CCOc1ccc(C2C(C(=O)c3ccco3)=C(O)C(=O)N2CCCn2ccnc2)cc1OC (stereo not given) was read as RanGTP-Imp inh 2.1, Calb FLC -4, Beta2AR agonist -3, T cruzi repl -18, LANA-H2A inh 3.2, UCH37 inh 3.8 and A1 inh -1.1.
Screening COc1ccc(C2c3c(ccc4ccccc34)Oc3ncn4nc(CO/N=C/c5ccccc5)nc4c32)cc1 (stereo not given) returned RanGTP-Imp inh 0.3, Calb FLC -13, Beta cell apopt -7, Beta2AR agonist -5, T cruzi repl -15, LANA-H2A inh 6.2 and A1 inh 0.3.
For CCc1cccc(CC)c1-n1c(-c2cccnc2)n[nH]c1=S the results were RanGTP-Imp inh 4.8, Calb FLC 6, Beta cell apopt -7, Beta2AR agonist 3, T cruzi repl -9, LANA-H2A inh 6.1, UCH37 inh 3.8 and A1 inh -0.2.
For COc1cccc(CNC(=O)CC2C(=O)NCCN2CCCc2ccccc2)c1 (stereo not given) the results were RanGTP-Imp inh 2.3, Calb FLC -1, Beta cell apopt -9, Beta2AR agonist -7, T cruzi repl -20, LANA-H2A inh -1.1, UCH37 inh -6.0 and A1 inh -0.8.
Screening NCCc1nnc(SCc2ccc(F)cc2)o1 returned RanGTP-Imp inh 0.0, Calb FLC 4, Beta cell apopt -1, Beta2AR agonist -15, T cruzi repl -17, LANA-H2A inh 5.4, UCH37 inh 6.6 and A1 inh -0.1.
COc1ccc(CCNC(=O)c2c([S-])n(-c3ccc(C)cc3)c3cccc[n+]23)cc1 was read as RanGTP-Imp inh 4.7, Calb FLC -1, Beta cell apopt 2, Beta2AR agonist 11, T cruzi repl 17, LANA-H2A inh -3.0, UCH37 inh -1.3 and A1 inh 0.0.
CC(=O)Nc1c2c(nn1-c1ccc(C)cc1)CS(=O)(=O)C2 was read as RanGTP-Imp inh inconclusive, Calb FLC 11, Beta cell apopt -5, Beta2AR agonist 6, T cruzi repl -15, LANA-H2A inh -0.9, UCH37 inh -4.2 and A1 inh 0.5.
COc1cc(/C=C/C(=O)O)cc(S(=O)(=O)NCc2ccco2)c1OC was read as RanGTP-Imp inh -0.5, Calb FLC 11, Beta cell apopt 0, Beta2AR agonist -2, T cruzi repl 7, LANA-H2A inh -0.8, UCH37 inh 3.0 and A1 inh 1.1.
O=C(O)CC1(CC(=O)Nc2ccc3sccc3c2)CCCCC1 was read as RanGTP-Imp inh -2.1, Calb FLC 2, Beta cell apopt -9, Beta2AR agonist 4, T cruzi repl -9, LANA-H2A inh 0.1, UCH37 inh 5.6 and A1 inh -0.8.
For O=C(NC(Cc1c[nH]c2ccccc12)C(=O)O)/C(=C/c1ccc(F)cc1)NC(=O)c1ccccc1 (stereo not given) the results were RanGTP-Imp inh -0.7, Calb FLC -3, Beta cell apopt -1, Beta2AR agonist 0, T cruzi repl -19, LANA-H2A inh 2.4 and A1 inh 0.6.
S=c1[nH]cc(Cc2ccccc2)s1 was read as RanGTP-Imp inh 2.6, Calb FLC 24, Beta cell apopt -1, Beta2AR agonist -7, T cruzi repl 3, LANA-H2A inh -1.7, UCH37 inh 2.5 and A1 inh inconclusive.
`COc1ccc(C(O)CNc2ccc(C)cc2)cc1` (stereo not given) gave RanGTP-Imp inh -3.0, Calb FLC -13, Beta cell apopt -4, Beta2AR agonist 7, T cruzi repl -14, LANA-H2A inh -6.1, UCH37 inh -1.5 and A1 inh 0.4.
COc1ccc(CN2CCN(C(=O)Cn3c(=O)oc4cc(Cl)ccc43)CC2)c(OC)c1OC was read as RanGTP-Imp inh 1.3, Calb FLC -2, Beta cell apopt -6, Beta2AR agonist -7, T cruzi repl 15, LANA-H2A inh -3.2, UCH37 inh 0.0 and A1 inh 0.0.
For Cc1ccc(CNC(=O)COc2ccc(S(=O)(=O)N3CCOCC3)cc2)cc1 the results were RanGTP-Imp inh -1.4, Calb FLC 2, Beta cell apopt 2, Beta2AR agonist -4, T cruzi repl -10, LANA-H2A inh -0.7, UCH37 inh 1.2 and A1 inh 0.8.
Cc1ccc2nc(-c3cccnc3SCC(=O)N3c4ccccc4CC3C)[nH]c2c1 (stereo not given) was read as RanGTP-Imp inh -2.4, Calb FLC 3, Beta2AR agonist 3, T cruzi repl 15, LANA-H2A inh -0.7, UCH37 inh -5.4 and A1 inh -7.2.
`COc1ccc([N+](=O)[O-])cc1NC(=O)CSCc1cc(C)cc(C)c1` gave RanGTP-Imp inh inconclusive, Calb FLC -5, Beta cell apopt -4, Beta2AR agonist -5, T cruzi repl 23, LANA-H2A inh 4.3, UCH37 inh 11 and A1 inh 0.2.
Cc1cccc(Cn2ccc(NC(=O)c3ccc4c(c3)OCO4)n2)c1 was read as RanGTP-Imp inh 1.9, Calb FLC -18, Beta cell apopt -4, Beta2AR agonist 2, T cruzi repl 18, LANA-H2A inh -3.6, UCH37 inh -0.9 and A1 inh -0.3.
COc1ccc(N(C)C(=O)CCS(=O)(=O)c2cccc3nsnc23)cc1 was read as RanGTP-Imp inh -1.3, Calb FLC 0, Beta cell apopt -7, Beta2AR agonist 5, T cruzi repl -6, LANA-H2A inh 6.6, UCH37 inh 3.3 and A1 inh -0.2.
`COc1ccc(CC(=O)N/N=C(\C)CC(=O)Nc2ccc(N(C)C)cc2)cc1` gave RanGTP-Imp inh 3.8, Calb FLC -1, Beta cell apopt -7, Beta2AR agonist 0, T cruzi repl 2, LANA-H2A inh -3.6 and A1 inh -0.4.
Screening CCc1ccc(C(=O)N/N=C/c2ccncc2)s1 returned RanGTP-Imp inh -1.3, Calb FLC -13, Beta cell apopt -11, Beta2AR agonist 2, T cruzi repl -9, LANA-H2A inh 4.8 and A1 inh 0.3.
For CCCCN1C(=O)C(=O)N(CC(=O)Nc2ccccc2C(=O)OCC)C1=O the results were RanGTP-Imp inh 1.2, Calb FLC 0, Beta cell apopt -12, Beta2AR agonist 0, T cruzi repl -16, LANA-H2A inh 1.4, UCH37 inh 1.0 and A1 inh -0.5.
`CCCCNC(=O)NC1CCCC1` gave RanGTP-Imp inh 3.2, Calb FLC 4, Beta cell apopt -13, Beta2AR agonist 25, T cruzi repl 1, LANA-H2A inh -1.1, UCH37 inh 1.0 and A1 inh -0.3.
`CCc1ccccc1N(CC)C(=O)C1CCN(c2ncnc3c2nc2n3CCCCC2)CC1` gave RanGTP-Imp inh -2.5, Calb FLC -1, Beta cell apopt 12, Beta2AR agonist 8, T cruzi repl 24, LANA-H2A inh -1.2, UCH37 inh 1.4 and A1 inh 0.0.
For Cc1cc(NC(=O)Cc2cn3ccsc3n2)n(-c2ccccc2)n1 the results were RanGTP-Imp inh 1.5, Calb FLC -2, Beta cell apopt -4, Beta2AR agonist -6, T cruzi repl 4, LANA-H2A inh -2.3, UCH37 inh -1.6 and A1 inh 0.2.
Screening CC1(C)C[C@H](O)[C@]2(CO)[C@H](O)C[C@]3(C)C(=CCC4[C@@]5(C)CC[C@H](O)C(C)(C)C5CC[C@]43C)[C@@H]2C1 (stereo not given in full) returned Beta cell apopt 56, Beta2AR agonist 11, LANA-H2A inh -1.1 and A1 inh 14*.
Screening CCc1nnc(NC(=O)CCN2C(=O)c3ccccc3S2(=O)=O)s1 returned RanGTP-Imp inh -3.9, Calb FLC 27, Beta cell apopt 2, Beta2AR agonist -8, T cruzi repl -16, LANA-H2A inh -2.1, UCH37 inh 0.2 and A1 inh 2.0.
O=C1c2cccc3cccc(c23)C(=O)N1CC1CCCO1 (stereo not given) was read as RanGTP-Imp inh 2.3, Calb FLC 1, Beta cell apopt -2, Beta2AR agonist -4, T cruzi repl -14, LANA-H2A inh -4.0, UCH37 inh -149 and A1 inh -0.6.
CCN(CC)C(=O)C1CCCN(Cc2ccc3c(c2)OCO3)C1 (stereo not given) was read as RanGTP-Imp inh -0.5, Calb FLC -3, Beta cell apopt 0, Beta2AR agonist -2, T cruzi repl 42, LANA-H2A inh 5.0, UCH37 inh -0.7 and A1 inh 0.0.
C[n+]1cc(-c2ccccc2)oc1-c1ccccc1 was read as RanGTP-Imp inh -0.2, Calb FLC -5, Beta cell apopt -1, Beta2AR agonist 2, T cruzi repl 1, LANA-H2A inh 2.0, UCH37 inh -5.7 and A1 inh -0.2.
Screening O=c1c(Cl)c(N2CCOCC2)cnn1-c1ncc(C(F)(F)F)cc1Cl returned RanGTP-Imp inh -0.4, Calb FLC -15, Beta cell apopt -3, Beta2AR agonist 8, T cruzi repl -2, LANA-H2A inh -0.1, UCH37 inh 5.8 and A1 inh 0.0.
For CCCN(CCC)C(=O)c1cc(-c2ccc3c(c2)OCO3)nc2ccccc12 the results were RanGTP-Imp inh 0.9, Calb FLC -2, Beta cell apopt -3, Beta2AR agonist 6, T cruzi repl 21, LANA-H2A inh 5.1, UCH37 inh -59 and A1 inh 0.8.
`COc1ccc(C(=O)OCC(=O)NC2CCCCCCC2)cc1OC` gave Beta cell apopt -23, Beta2AR agonist -17, LANA-H2A inh -2.9, UCH37 inh 1.7 and A1 inh -0.4.
For COc1ccc2c(c1)C(C)=CC(C)(C)N2S(=O)(=O)c1ccc(C)cc1 the results were RanGTP-Imp inh 3.4, Calb FLC 15, Beta cell apopt 32, Beta2AR agonist 15, T cruzi repl 49, LANA-H2A inh -2.1, UCH37 inh 23* and A1 inh -0.6.
Screening CN1CCC(N(C)C(=O)COc2ccccc2-c2ccccc2)CC1 returned RanGTP-Imp inh -4.4, Calb FLC -10, Beta cell apopt 6, Beta2AR agonist 3, T cruzi repl 50, LANA-H2A inh -5.9, UCH37 inh 3.3 and A1 inh 0.3.

No enrichment for hits; about 4.3% have a hit in one of these screens.
